# Mtb H37Rv: Mycobacterium tuberculosis H37Rv growth inhibition, cell based, confirmatory dose response (AID 1949). 100,000 compounds, 1.6% hits. most inactive calls were filed without a number and no value below 0 was filed. inhibition, % at 10 µg/mL, or IC50 in µg/mL where a hit was titrated;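 active = confirmed in a dose series; inconclusive = about 50% or more but not retested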;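 note: bacteria grown 7 days with compound before Alamar blue readout; 0% = untreated bacteria and 100% = reference antibiotic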
# Active calls of the source: *; i = inactive; ? = inconclusive. The list is partial (hit frequency here may not be typical).
SMILES,Mtb H37Rv
O=C(c1ccco1)N1CCN(S(=O)(=O)c2cccs2)CC1,3%
N#Cc1cccc(CSc2nnc(CCc3ccccc3)n2-c2ccccc2)c1,i
CC(C)CC(=O)NC(c1ccc(Cl)cc1Cl)c1c(O)ccc2ccccc12 (stereo not given),1.7µg/mL*
COc1ccccc1CNC(=O)c1cc2ccccc2oc1=O,i
COC(=O)c1ccc(C(=O)OC)c(NC(=O)c2cc3ccccc3oc2=O)c1,i
Cc1ccc(NS(=O)(=O)c2ccc(F)c(Cl)c2)cc1C,0%
CCc1c(C)sc(N2C(C)=CC(C(F)(F)F)(C(F)(F)F)C(C#N)=C2N)c1C#N,0%
Cc1cc(C(F)(F)Cl)n2nc(-c3ccccc3)cc2n1,i
CC(NC(=O)CNC1CCCCC1)C12CC3CC(CC(C3)C1)C2 (stereo not given),5%
CCOc1cc(CNCCO)cc(Cl)c1OCc1cccs1,4%
O=C(O)CC1SC(=Nc2ccc(O)cc2)NC1=O (stereo not given),i
COC(=O)c1ccc(OCC(=O)c2ccc(F)cc2)cc1,i
C=CCNC(=O)C1CC=CCC1C(=O)O (stereo not given),i
COc1ccc(C2Nc3ccccc3NC3=C2C(=O)CC(C)(C)C3)c(OC)c1OC (stereo not given),i
CCOc1cccc(N2CCN(CCNC(=S)Nc3ccc(C)cc3)CC2)c1C,2%
CCCc1[nH]n(-c2ccc([N+](=O)[O-])cc2)c(=O)c1C=NCCc1ccc(S(N)(=O)=O)cc1,i
COc1cc(NC(=O)c2ccc(Br)o2)ccc1NC(=O)C(C)C,i
Cc1ccc(C)c(C(=O)N(C)Cc2ccccc2)c1,i
COc1ccc(CCN2C(=O)c3cccc4cccc(c34)C2=O)cc1OC,i
CC(C)C(=O)N1CCN(c2ccc(NC(=O)c3ccc([N+](=O)[O-])o3)cc2)CC1,0.21µg/mL*
COc1c2occc2c(OC)c2c(=O)cc(C(F)(F)F)oc12,i
O=S(=O)(c1ccc(-c2ccc(Cl)cc2)cc1)N1CCCCC1,i
CCOc1ccc(Cl)cc1C=C1C(=O)N(C)C(=O)N(C)C1=O,i
CC(=O)N1N=C(c2ccc(Br)cc2)CC1c1ccc([N+](=O)[O-])cc1 (stereo not given),i
COc1ccc(COC(=O)C2=C(C)NC3=C(C(=O)CCC3)C2c2cc(Br)ccc2OC)cc1 (stereo not given),i
Nc1c(C(=O)c2ccccc2)sc2sc(C(=O)c3ccccc3)c(N)c12,5%
CCCC(=O)N1CCN(c2ccc(NC(=S)NC(=O)c3cccs3)cc2Cl)CC1,i
COc1cc(C=O)ccc1OCC(=O)Nc1ccccc1C(=O)c1ccccc1,2%
COC(=O)c1ccc(C(=O)OC)c(NC(=O)c2ccc(-c3ccc(Cl)cc3Cl)o2)c1,i
CN(c1cccc(NC(=O)CSCc2c(Cl)cccc2Cl)c1)S(C)(=O)=O,i
O=C(Nc1ccccc1C(F)(F)F)N1CCN(c2cccc(C(F)(F)F)c2)CC1,i
COc1ccc(OCCCC(=O)Nc2nc3ccccc3s2)cc1,i
O=S(=O)(Nc1cccnc1)c1ccc(Oc2ccccc2Cl)cc1,i
COc1c(C)cccc1C(=O)NC(=S)Nc1cccc([N+](=O)[O-])c1,i
COc1ccc(C(C)(C)C)cc1NC(=O)c1cnccn1,2%
CCS(=O)(=O)N1CCC(N2CCCC(C)C2)CC1 (stereo not given),0%
Cc1c(CCOC(=O)c2ccccc2)sc[n+]1CC(=O)c1ccc(Br)cc1,3%
COc1ccc(-n2c(SCC(=O)Nc3ccc(C)c(C)c3)nnc2-c2ccccc2)cc1,i
CCOc1cc(CO)cc(I)c1OCC(=O)O,i
CCn1c(SCC(=O)Nc2ccccc2)nnc1-c1cc(OC)cc(OC)c1,3%
CSc1ccc(S(=O)(=O)N(CC(=O)NCc2ccc(Cl)cc2)c2ccc(C)cc2)cc1,i
C=CCOc1ccc(NC(=O)C(=O)NCc2cccnc2)cc1,i
CCOC(=O)C(C)Oc1c(Br)cc(C2NC(=O)NC(C)=C2C(C)=O)cc1OCC (stereo not given),i
CCc1cc(=O)oc2cc(C)cc(OCc3cc(C)ccc3C)c12,i
CCCN(C(=O)c1ccccc1N)c1c(C)n(C)n(-c2ccccc2)c1=O,i
Cc1nnc(SCC(=O)Nc2cccc(F)c2)s1,i
O=C(Nc1c(Cl)cc(Cl)cc1C(=O)N1CCCC1)c1ccc(Cl)cc1Cl,i
COC(=O)c1ccccc1NC(=O)c1ccc(C(C)C)cc1,0%
COC(=O)c1cc(NC(=S)NCCc2ccc(F)cc2)cc(C(=O)OC)c1,i
S=C(NCc1ccccc1)c1ccccn1,28%
CCOc1ccc2c(c1)SCC(=S)N2,7%
CCc1ccccc1N(CC(=O)N1CCN(CC)CC1)S(C)(=O)=O,i
Cc1cccc(C)c1NC(=O)Cn1cnc2c(=O)n(C)c(=O)n(C)c21,i
CC1(C)CC(NC(=O)COc2ccc(Cl)cc2Br)CC(C)(C)N1,i
COc1ccc(C(=O)Nc2ncc3c(n2)CC(c2cccs2)CC3=O)cc1 (stereo not given),i
COc1cccc(OC)c1C(=O)Nc1ccc2c(c1)oc1ccccc12,i
CC(O)CC(=O)NNC(=S)Nc1ccc(Cl)c(Cl)c1 (stereo not given),i
CC(=O)N1N=C(c2ccc3nccnc3c2)CC1c1ccccc1 (stereo not given),i
Cc1cc(C)c(S(=O)(=O)N2CCC(C(=O)NNC(=S)NC3CCCC3)CC2)c(C)c1,i
COc1ccc(CNC(=O)CC2Sc3ccccc3NC2=O)cc1 (stereo not given),3%

# (listing goes on)
SMILES,Mtb H37Rv
O=Cc1cc(Cl)ccc1OCC(=O)Nc1ccccc1,18%
COCCNC(=O)CN(Cc1ccc(Br)cc1)S(=O)(=O)c1ccc(C)cc1,i
COc1ccccc1-n1c(C23CC4CC(CC(C4)C2)C3)n[nH]c1=S,?
O=S(NC12CC3CC(CC(C3)C1)C2)c1ccc2ccccc2c1 (stereo not given),5%
COc1cc(NC(=O)c2ccco2)c(OC)cc1Br,i
C=CCN1C(=O)C(O)(CC(=O)c2cccs2)c2ccccc21 (stereo not given),i
CCOc1ccc(NS(=O)(=O)c2ccc(NC(=O)COc3ccccc3OC)cc2)cc1,6%
COc1ccc(S(=O)(=O)NCCC2=CCCCC2)cc1Cl,i
CCC(C)NCCCOc1ccc(Br)cc1Cl (stereo not given),i
O=C(CNS(=O)(=O)c1cc(Cl)ccc1Cl)Nc1ccc2c(c1)OCCO2,i
Cc1cccc(NC(=O)c2ccc(F)cc2)c1C(=O)O,i
Cc1cc(C)c(NC(=O)c2ccc(S(=O)(=O)N(C)C)cc2)c(C)n1,i
CCc1c(C)nc(N)nc1N1N=C1SC,i
O=C(c1ccccc1)N1CCN(c2ccc([N+](=O)[O-])c(NCc3cccnc3)c2)CC1,i
Cc1ccc(C)c(C(=O)NC2CC(C)(C)NC(C)(C)C2)c1,i
CCOc1cc(C(=O)Nc2c(C)n(C)n(-c3ccccc3)c2=O)cc(OCC)c1OCC,i
COc1ccccc1C1NC(=S)NC(C)=C1C(=O)Nc1ccc(C)cc1 (stereo not given),i
O=C(COc1ccc2ccccc2c1Br)Nc1nc2ccccc2s1,i
CC(=O)Oc1ccc(N(C(C)=O)S(=O)(=O)c2cccs2)c2ccccc12,i
Cn1c(SCc2ccc(Br)cc2)nnc1-c1ccc([N+](=O)[O-])cc1,i
COc1cc(CNCCO)cc(Cl)c1OCc1ccccc1F,i
S=c1nc(SCc2ccccc2)[nH]c2ccccc12,39%
CC(=O)N1CCN(c2ccc(NC(=S)NC(=O)COc3ccc(Cl)cc3C)cc2)CC1,i
Cc1ccc(Cl)cc1NC(=O)CC(C(=O)O)N1CCNCC1 (stereo not given),i
Cc1cc(O)ccc1NC(=O)c1ccc(-c2ccccc2)cc1,i
Cc1cc(C)n(S(=O)(=O)/C=C/c2ccccc2)n1,30%
O=C(Cc1ccc(Cl)c(Cl)c1)Nc1nccs1,i
CC(C)Oc1ccc(C(=O)NC(=S)Nc2ccc(C(=O)O)c(Cl)c2)cc1,7%
CS(=O)(=O)N(CC(=O)N1CCc2ccccc2C1)c1ccc(Oc2ccccc2)cc1,4%
CCCOc1ccccc1NC(=O)Nc1ccc(Cl)cc1,4%
OC(COCCC12CC3CC(CC(C3)C1)C2)CN1CCc2ccccc2C1 (stereo not given),3.5µg/mL*
O=C(NC(=S)Nc1ccc(I)cc1F)c1cc2ccccc2o1,i
CCCCCC(=O)Nc1ccc(N2CCN(CC)CC2)cc1,i
CCN(CC)c1noc2c1C(c1ccoc1)c1cc(N)ccc1O2 (stereo not given),1%
O=C(C1CCCC1)N1CCN(Cc2ccccc2)CC1,i
COC(=O)C(C(=O)NCC1CCCO1)C1CCCCCC1 (stereo not given),i
Nc1ccc(C(=O)N2CCOCC2)cc1,i
N/C(=N\OC(=O)N1CCOCC1)c1ccccc1,?
CCCOc1cccc(C(=O)Nc2cc(-c3nc4ccccc4s3)ccc2C)c1,23%
CC(C)Cc1cc2c(c(N)n1)c(=O)oc1ccccc12,i

# 14 entries already listed, ordered by molecular weight, smallest number first.
SMILES,Mtb H37Rv
Nc1ccc(C(=O)N2CCOCC2)cc1,i
Cc1cc(C)n(S(=O)(=O)/C=C/c2ccccc2)n1,30%
O=C(C1CCCC1)N1CCN(Cc2ccccc2)CC1,i
O=C(Cc1ccc(Cl)c(Cl)c1)Nc1nccs1,i
COC(=O)C(C(=O)NCC1CCCO1)C1CCCCCC1 (stereo not given),i
CCCOc1ccccc1NC(=O)Nc1ccc(Cl)cc1,4%
CCN(CC)c1noc2c1C(c1ccoc1)c1cc(N)ccc1O2 (stereo not given),1%
Cc1ccc(Cl)cc1NC(=O)CC(C(=O)O)N1CCNCC1 (stereo not given),i
COc1cc(CNCCO)cc(Cl)c1OCc1ccccc1F,i
OC(COCCC12CC3CC(CC(C3)C1)C2)CN1CCc2ccccc2C1 (stereo not given),3.5µg/mL*
CC(C)Oc1ccc(C(=O)NC(=S)Nc2ccc(C(=O)O)c(Cl)c2)cc1,7%
CCCOc1cccc(C(=O)Nc2cc(-c3nc4ccccc4s3)ccc2C)c1,23%
O=C(NC(=S)Nc1ccc(I)cc1F)c1cc2ccccc2o1,i
CC(=O)N1CCN(c2ccc(NC(=S)NC(=O)COc3ccc(Cl)cc3C)cc2)CC1,i

# (cont.)
SMILES,Mtb H37Rv
COCc1nnc(NC(=O)c2c(-c3ccccc3)noc2C)s1,i
CCOC(=O)Oc1ccc2c(=O)c(Oc3cc(C)cc(C)c3)coc2c1,i
CCOC(=O)c1c(NC(=O)c2cnccn2)sc2c1CCCCCC2,i
COc1ccc(C)cc1NC(=S)NNC(=O)c1c(Br)cnn1C,i
O=C(Nc1ccc(Cl)cc1C(=O)NCCO)c1ccc(Cl)cc1Cl,19%
CC(C)(C)NCCOCCOc1ccc(Cl)cc1C(C)(C)C,8%
CS(=O)(=O)N(CC(=O)NC1CCCCC1)c1ccc2c3c(cccc13)CC2,3%
Cn1ncc(N2CCN(S(=O)(=O)c3ccc(Br)cc3)CC2)c(Cl)c1=O,1%
CCN(CC)c1ccc(NC(=O)c2cc(Br)ccc2Cl)c(C)c1,32%
C=CCn1c(SCC(=O)NCCc2ccccc2)nc2scc(-c3ccco3)c2c1=O,2%
COCC(=O)Nc1ccc(Oc2cc(Cl)c(Cl)cc2Cl)cc1,i
COc1ccc(C2C(C#N)=C(N)Oc3n[nH]c(C)c32)cc1 (stereo not given),i
COc1ccc(CN2CCN(C(C)C)CC2)cc1OCc1ccccc1,i
O=C(CSCc1nc2ccccc2[nH]1)Nc1cccc(C(F)(F)F)c1,i
O=C(c1ccc2c(=O)n(Cc3ccco3)c(=S)[nH]c2c1)N1CCN(c2cccc(Cl)c2)CC1,20%
COC(=O)Nc1ccc(NC(=O)C23CC4CC(CC(C4)C2)C3)cc1,i
COc1ccc(NC(=S)NC(=O)c2ccccc2I)cc1Cl,i
O=S(=O)(Nc1ccccc1Cl)c1cccs1,i
Cc1ccc(N(C(=O)c2cc3ccccc3oc2=O)C2C=CS(=O)(=O)C2)cc1 (stereo not given),1%
CCOC(=O)c1sc(N)c(C#N)c1C,i

# Individual results from above.
# Value of C=CCn1c(SCC(=O)NCCc2ccccc2)nc2scc(-c3ccco3)c2c1=O under Mtb H37Rv: 2%
# Value of O=C(Nc1ccc(Cl)cc1C(=O)NCCO)c1ccc(Cl)cc1Cl under Mtb H37Rv: 19%
# Value of Cc1ccc(N(C(=O)c2cc3ccccc3oc2=O)C2C=CS(=O)(=O)C2)cc1 (stereo not given) under Mtb H37Rv: 1%

# The results go on:
SMILES,Mtb H37Rv
COC(=O)c1c(NC(=S)NCc2ccccn2)sc(C)c1-c1ccccc1,i
CC(=O)c1ccc(NC(=S)N2CCN(c3ccc(F)cc3)CC2)cc1,i
COc1ccc(C(=O)C(CN2CCCCC2)c2ccccc2)cc1 (stereo not given),3.1µg/mL*
O=C(NCc1ccco1)c1ccc(NC(=O)c2cccs2)cc1,i
CCc1cc(=O)n2[nH]c(C)c(-c3ccc(OC)cc3)c2n1,i
COCc1nnc(NC(=O)CCSc2ccccc2)s1,i
CC(=O)N1CCc2ccccc2C1CC(=O)O (stereo not given),i
C=CCNC(=S)N1CCc2c([nH]c3ccccc23)C1C (stereo not given),i
Cn1c(SCCOc2ccccc2Cl)nnc1-c1ccncc1,1%
COc1ccccc1NC(=O)C1=C(C)NC(=S)NC1c1cccs1 (stereo not given),i
COc1ccc(C(=O)COC(=O)CCC(=O)c2ccc(C)cc2)cc1Br,i
Cc1ccc(S(=O)(=O)CCc2ccccn2)cc1,i
COCc1nnc(NC(=O)c2cc(F)c(F)cc2Cl)s1,i
Cc1cc(C(F)F)n2ncc(C(=O)N3CCc4ccccc4C3)c2n1,i
O=C(NCCSC1CCCCC1)c1cccc(Cl)c1,i
CCOc1c(S(=O)(=O)N2CCCC2)ccc(Cl)c1Cl,i
COc1ccc([N+](=O)[O-])cc1NC(=O)C(CC(C)C)N1C(=O)c2ccccc2C1=O (stereo not given),0%
O=C(Nc1nccs1)c1ccc(Cl)cc1[N+](=O)[O-],i
CSc1ccc(S(=O)(=O)Nc2cccc(Br)c2)cc1,i

# 4 of the compounds above, with bars between the fields:
Molecule | Mtb H37Rv
COCc1nnc(NC(=O)CCSc2ccccc2)s1 | i
CC(=O)N1CCc2ccccc2C1CC(=O)O (stereo not given) | i
C=CCNC(=S)N1CCc2c([nH]c3ccccc23)C1C (stereo not given) | i
Cn1c(SCCOc2ccccc2Cl)nnc1-c1ccncc1 | 1%
